Assay outcomes from PubChem.
HNF4A DNA FP: change in binding of human HNF4 alpha to DNA. HNF4a-FITC DNA binding, fluorescence polarization, 1 h. activity change, % at 10 µM. AID 1224865. 0.3% of 360,000 active; in the data active means activity change above about 30%, passing the limit was not always enough;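 further: controls were the assay level and a saturating level of protein; the project sought stronger binding though the title names inhibitors; some compounds called inactive have numbers as strong as hits; positive values seem to mean higher polarization but the record does not say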
FGF22 binding: shifts melting point of recombinant human FGF22. Q9HCT0. recombinant FGF22 thermal shift, SYPRO orange fluorescence; percent of sucrose octasulfate shift, DMSO zero. calls only at 9.99 µM. 1.5% of 340,000 active;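 active means melting point raised past a set limit in the mean and every replicate; inconclusive means no clear call; three in four hits are not shown here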
Target sequence (Q9HCT0 whole entry, looked up): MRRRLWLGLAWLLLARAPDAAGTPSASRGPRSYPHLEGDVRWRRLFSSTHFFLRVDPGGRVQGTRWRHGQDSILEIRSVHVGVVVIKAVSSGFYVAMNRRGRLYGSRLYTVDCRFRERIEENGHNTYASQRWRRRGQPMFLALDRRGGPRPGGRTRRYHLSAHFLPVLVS
MLL AF4-AF9 inh: inhibitors of human MLL-AF4/AF9 interaction. inhibition, % at 10 µM. 0.47% of 350,000 active. AlphaScreen, biotin-AF4 peptide binding to FLAG-AF9. P42568. AID 651704;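 active means every replicate reaching a set inhibition limit, whatever the replicate mean, cut at about 25% in these data; inconclusive means mean inhibition reaches that limit but some replicates miss it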;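 further: 0% = plate neutral control median and 100% = total signal loss; the record names both 10 and 1 µM as test concentration; the first replicate is given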
Target sequence (P42568 whole entry, looked up): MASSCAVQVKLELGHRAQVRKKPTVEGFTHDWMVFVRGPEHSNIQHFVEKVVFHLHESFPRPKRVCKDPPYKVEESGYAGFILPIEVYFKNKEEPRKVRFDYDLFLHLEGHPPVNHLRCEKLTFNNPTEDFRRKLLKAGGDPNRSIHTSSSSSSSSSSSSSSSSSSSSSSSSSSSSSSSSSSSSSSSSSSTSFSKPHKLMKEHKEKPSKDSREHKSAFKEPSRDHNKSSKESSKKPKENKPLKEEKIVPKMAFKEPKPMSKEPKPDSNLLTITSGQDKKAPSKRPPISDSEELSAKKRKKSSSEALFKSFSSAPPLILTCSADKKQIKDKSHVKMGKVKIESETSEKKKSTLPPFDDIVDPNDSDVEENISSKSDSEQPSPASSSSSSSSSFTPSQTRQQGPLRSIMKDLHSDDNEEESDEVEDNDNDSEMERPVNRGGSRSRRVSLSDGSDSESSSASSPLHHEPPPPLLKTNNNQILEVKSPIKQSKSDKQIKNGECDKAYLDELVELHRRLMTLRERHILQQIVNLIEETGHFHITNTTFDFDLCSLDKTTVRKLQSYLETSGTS
RanGTP-Impb inh: inhibitors of RanGTP-importin-beta interaction, primary screen, biochemical, FRET, CFP-Ran, YFP-importin-beta, homogeneous. cell-free CFP-Ran/YFP-importin-beta FRET ratio. 1.1% of 300,000 active. AID 2216. inhibition, % (concentration not given with the values);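 active means most replicates above 15%; inconclusive means exactly half above 15%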;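 further: 0% = DMSO wells and 100% = Ran loaded with GDP instead of GTP; wells of about 40 µL received 100 nL stock; the first replicate is given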
UCH37 DUB inh: blocks the human deubiquitinase UCH37; purified proteasome/UCH37, Ub-AMC cleavage fluorescence; inhibition, % (test concentration not listed); 0.33% of 330,000 active; AID 588478;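 active means mean of two replicates above 20%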;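 further: 0% = compound-free wells with enzyme and 100% = wells lacking proteasome; stock transfer was 100 nL into about 20 µL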
Target sequence (Q9Y5K5 whole entry, looked up): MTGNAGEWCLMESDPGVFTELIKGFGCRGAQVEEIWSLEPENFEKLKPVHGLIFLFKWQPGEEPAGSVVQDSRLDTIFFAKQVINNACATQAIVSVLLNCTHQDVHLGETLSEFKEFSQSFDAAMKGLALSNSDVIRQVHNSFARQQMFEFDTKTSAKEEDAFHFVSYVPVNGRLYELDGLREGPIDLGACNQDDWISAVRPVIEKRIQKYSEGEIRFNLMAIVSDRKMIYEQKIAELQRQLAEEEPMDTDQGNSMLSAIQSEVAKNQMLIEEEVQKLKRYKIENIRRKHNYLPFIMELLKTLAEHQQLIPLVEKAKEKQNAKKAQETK
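Material: Human UCH37 enzyme supplied as purified proteasome complex | Schedule: 30 min preincubation with enzyme, 25 min cleavage at room temperature | Detection: AMC fluorescence 355/460 nm | Measure: % inhibition of Ub-AMC cleavage fluorescence | Controls: Wells without proteasome as full block, compound-free enzyme plus substrate as uninhibited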
Ecoli growth: inhibitors of Escherichia coli growth; OD600, 23 h; stronger effect = lower value; OD600 absorbance (no concentration beside the values); 0.21% of 330,000 active;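 active means OD600 absorbance below the run mean of sample wells minus 3.6 SD, in any replicate, cut at about 0.56 in these data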;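 further: stock transfer was 300 nL into about 60 µL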
Vif A3G: inhibitors of Vif binding to APOBEC3G peptide, primary screen, biochemical, TR-FRET, GST-Vif 1-94, biotin-A3G peptide, dose response retest (AID 1117319); 0.57% of 260,000 active; TR-FRET GST-Vif / biotin-A3G peptide binding; higher % means a stronger effect; test concentration not given here; strong numbers were not always called active; one-dose inhibition, %; IC50 in µM for titrated hits;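 active means above the screen mean plus three standard deviations and confirmed in dose response; inconclusive means results disagree or hit not tested in dose response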;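 further: Vif residues 1-94 fused to GST binding biotinylated APOBEC3G peptide 110-148; 0% = full assay without inhibitor and 100% = GST in place of GST-Vif; retest series ran down from 100 µM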
Numbers without * were called inactive; i = inactive; u = inconclusive; x = no result given; & = joins results of further samples; ! = not confirmed by another sample. These rows are one share of the data (hit frequency here may not be typical).

compound	HNF4A DNA FP	FGF22 binding	MLL AF4-AF9 inh	RanGTP-Impb inh	UCH37 DUB inh	Ecoli growth	Vif A3G
Cc1cccc(-c2noc(CCC(=O)NCc3ccccc3)n2)c1	1.8	x	x	-4.7	1.8	0.682	9.0%
CCCCCCCCC(NC(=O)c1ccc(C#N)cc1)C(=O)NCCC (centres undefined)	-4.4	i	1.3	x	3.9	0.782	x
COc1ccc([N+](=O)[O-])cc1NC(=O)C(C)N1CCCC1 (centres undefined)	1.0	i	1.0	-1.0	4.7	0.656	x
OC(c1ccc(Cl)c(Cl)c1)c1ncc(-c2ccc(C(F)(F)F)cc2)[nH]1 (centres undefined)	0.6	i	6.2	x	x	x	x
COC(=O)Nc1nncs1	1.4	i	-9.9	-3.2	2.2	0.658	8.7%
O=C1c2ccccc2C(c2nnnn2Cc2ccccc2)N1C1CC1 (centres undefined)	-2.8	i	0.5	x	x	x	x
Cc1ccc(CS(=O)(=O)CCC(=O)NCCc2ccccc2)cc1	-2.7	i	-2.8	1.3	-4.4	0.647	-2.0%
COC(=O)c1[nH]c2cc(OC)ccc2c1N=CN(C)C	-1.6	i	-1.8	5.7	3.2	0.671	3.8%
Cc1ccccc1NC1=C(Cl)C(=O)N(C2CCCCC2)C1=O	0.2	x	x	1.0	1.3	0.644	1.3%
COc1cccc(NC(=O)c2oc3ccc(S(=O)(=O)N4CCOCC4)cc3c2C)c1	-0.2	i	-0.1	-0.6	3.2	0.719	-5.2%
CC(C)c1nc(C(=O)N2CCCC(N3CCN(c4cccc(Cl)c4)CC3)C2)cs1 (centres undefined)	-0.7	i	-3.8	1.5	-1.0	0.728	5.9%
COc1ccccc1CC(=O)Nc1ccc(-c2noc(COc3ccc(Cl)c(C)c3)n2)cc1	2.7	x	x	1.4	6.3	0.681	-4.6%
O=C(CSc1n[nH]c(-c2ccco2)n1)Nc1ccccc1F	-2.8	i	-3.2	-3.6	7.6	0.694	x
CC(=O)Nc1cccc(NC(=O)C(=O)Nc2ccc3c(c2)N(C(=O)C2CC2)CCC3)c1	-5.3	x	-2.5	-0.6	0.8	0.686	-9.6%
Cc1ccccc1NC(=O)Nc1cc(S(N)(=O)=O)ccc1C	-1.6	i	1.3	1.4	3.3	0.612	-12.0%
COc1ccc(C)cc1-n1nnnc1SCc1csc(C)n1	-3.8	x	x	-1.8	2.9	0.707	-4.0%
Cn1nnnc1CCOCCc1nnnn1C	-1.4	x	x	0.4	1.9	0.79	-2.6%
CCO/N=C(\C)c1c(O)c2ccccc2n(C)c1=O	-3.5	x	x	-1.6	x	x	2.9%
Cc1cc(NC(=O)CCC(=O)N(CCc2ccccc2)C(C(=O)NC2CCCC2)c2ccco2)no1 (centres undefined)	-0.3	x	x	-0.2	2.0	0.751	u
COc1cccc(N2CCN(C(=O)c3ccc(CSc4nc5ccncc5[nH]4)cc3)CC2)c1	5.1	i	8.4	u	3.3	0.734	x

Next part.
compound	HNF4A DNA FP	FGF22 binding	MLL AF4-AF9 inh	RanGTP-Impb inh	UCH37 DUB inh	Ecoli growth	Vif A3G
Cc1cccc(CCNC(=O)C2CCC(=O)N2Cc2ccc(F)cc2)c1 (centres undefined)	1.1	i	-1.7	4.7	5.6	0.735	1.4%
O=C(NNS(=O)(=O)c1ccccc1)c1ccc(O)cc1	1.2	i	-12.3	-0.4	2.7	0.709	12.2%
Cc1ccc(-n2c(SCCN)nnc2-c2cccc(C)c2)cc1	2.0	i	8.9	-1.2	-0.3	0.679	4.0%
Cc1ccc(S(=O)(=O)N2CCOCC2)cc1C(=O)NCc1cccs1	-2.9	i	6.5	1.2	4.4	0.717	4.4%
C=CCn1c(SCn2nnc3ccccc3c2=O)nnc1C1CCCCC1	0.4	x	x	-3.5	2.0	0.739	-0.5%
Cc1ccc2c(c1)N(CCC(=O)NCc1ccccn1)C(=O)CO2	2.5	x	x	-2.1	1.6	0.676	-0.4%
CC(NC(=O)COc1ccccc1)C1COc2ccccc2O1 (centres undefined)	1.3	x	x	-2.8	5.5	0.677	x
CCCCC12CN3CC(C)(CN(C1)C31C(=O)N(C)c3ccc(C)cc31)C2=O (centres undefined)	2.1	x	x	-0.3	-0.6	0.727	3.7%
CN(C)c1ccc(/C=C(/C(=O)c2ccc(Cl)cc2Cl)n2cncn2)cc1	91.6*	x	x	-11.0	3.7	x	u
CN(C(=O)c1cnc(N2CCN(c3ncccn3)CC2)c2ccccc12)c1ccc(Cl)cc1	1.7	x	x	-2.1	-0.8	0.679	18.7%
Oc1cccc2cc(Nc3ccccc3)cnc12	-1.6	i	29.5*	x	x	x	x
COc1ccc(S(=O)(=O)NCC(=O)O)cc1C(=O)NC1CCCCC1	2.0	x	x	4.3	0.5	0.704	20.9%
COc1ccccc1CN1CC(C(=O)NCc2cc(C(C)C)no2)CCC1=O (centres undefined)	0.6	i	-0.7	-1.9	0.6	0.688	6.5%
COc1ccc2c(CC(=O)Nc3ccccc3OC)coc2c1	-0.7	i	-0.3	2.5	0.1	0.679	-5.4%
CCOC(=O)C1=C[C@@H](C(C)(C)C)N(S(=O)(=O)c2ccc(C)cc2)[C@H]1c1ccc(C)cc1	-3.5	i	-1.2	x	x	x	x
COc1ccc(-c2nn3c(-c4ccccc4)nnc3s2)cc1	2.1	x	x	-1.2	-1.1	0.704	-7.6%
COc1cccc(NC(=O)c2sc3nc4n(c(=O)c3c2C)CCC4)c1	-1.4	i	-9.3	5.7	2.8	0.598	6.8%
CCN(CC)C(=S)NCCc1ccccc1	-1.1	i	-0.6	3.4	1.5	0.686	u
Cc1ccc(CNC(=O)C2c3ccccc3C(=O)N(C)C2c2c[nH]c3ccccc23)o1 (centres undefined)	x	x	x	-0.9	-0.5	0.812	u
CS(=O)(=O)Cc1ccc(C(=O)Nc2cccc(-c3nc4ccccc4[nH]3)c2)cc1	5.1	i	-1.5	-0.1	4.2	0.676	x

Following part.
compound	HNF4A DNA FP	FGF22 binding	MLL AF4-AF9 inh	RanGTP-Impb inh	UCH37 DUB inh	Ecoli growth	Vif A3G
CCN(CC)C(=O)c1[nH]cnc1C(=O)N[C@@H](C)C(=O)OC(C)(C)C	-10.0	i	-1.2	2.0	31.8*	x	x
NC(=O)N/N=C1\CCS(=O)(=O)c2ccc(F)cc21	-3.0	i	4.0	1.3	x	x	-4.0%
CC(C)N1CN=C(Nc2nc3ccccc3o2)NC1	-3.1	i	-1.3	-1.5	-0.6	0.679	2.3%
CC(C)C(OC(=O)c1ccco1)C(=O)NCc1ccc2c(c1)OCO2 (centres undefined)	2.5	i	-7.1	0.4	0.5	0.699	-2.2%
COc1cc(NC(=O)CSc2nc3[nH]c(=O)cc(O)c3s2)cc(OC)c1OC	-2.4	x	0.1	x	8.2	0.727	-7.1%
O=C(C[C@H]1C/C=C\CC[C@H](Cc2ccc(F)cc2)C(=O)OC[C@H]2CCCN2C1=O)NCCO	0.0	i	-2.7	x	-0.2	x	x
CC1CCCCC1NC(=O)CSc1nnc(-c2ccccc2)n1N (centres undefined)	1.5	x	x	4.0	0.6	0.718	-3.8%
COc1ccc(Cc2c(C3CCCCC3)nc3cc(C)c(Br)c(C)n23)c(C)c1	1.7	i	3.3	x	x	x	x
O=C1CN(C(=O)COC(=O)c2ccccc2Br)c2ccccc2N1	2.1	i	0.8	x	-1.9	0.642	3.0%
CC(=O)Nc1ccc(NC(=O)C(C)OC(=O)C2(c3ccc(F)cc3)CCCC2)cc1 (centres undefined)	-2.0	i	-2.7	-1.3	2.0	0.668	-12.0%
COc1ccc(C2(NC(C)=O)CCN(C(=O)c3ccco3)CC2)cc1	-1.8	x	x	-0.5	-0.9	0.751	26.2%
O=C(Cc1ccc(Cl)cc1)NCC(=O)N1CCCCCC1	2.1	i	-0.4	0.0	0.3	0.674	-8.0%
CC(=O)Nc1ccc(S(=O)(=O)NNc2ccc([N+](=O)[O-])cc2)cc1	-0.4	i	0.3	1.4	5.1	0.691	19.4%
CCOc1cccc(NC(=O)c2ccc(S(=O)(=O)N(C)C)cc2)c1	-2.5	i	3.7	x	4.9	0.686	7.4%
O=S(=O)(c1ccc(NC(=S)NN=C2CCCCC2)cc1)N1CCOCC1	2.0	x	2.0	4.9	0.8	0.664	12.8%
Cc1noc(C)c1S(=O)(=O)N1CCC(C(=O)NCCCN2CC(C)CC(C)C2)CC1 (centres undefined)	2.9	i	0.6	0.8	3.0	0.659	0.2%
COc1ccc2cc(Br)ccc2c1CC(=O)N1CCCC1	1.3	i	2.3	1.9	2.6	0.615	-7.0%
CC(=O)c1cccc(NC(=O)CSc2nnc(-c3ccc(S(=O)(=O)N4CCCC4)cc3)o2)c1	0.0	x	x	5.6	3.9	0.719	-1.6%&-16.5%
OC(Cn1cncn1)(Cn1cncn1)c1ccc(F)cc1F	-2.4	i	-11.1	2.8	-1.4	0.686	x
COc1ccc(Br)c2c1C(=O)CC2	-3.9	i	-0.5	-3.1	-4.6	0.622	-4.0%

(continued)
compound	HNF4A DNA FP	FGF22 binding	MLL AF4-AF9 inh	RanGTP-Impb inh	UCH37 DUB inh	Ecoli growth	Vif A3G
CC1(C)C2CCC1(CS(=O)(=O)NC(CC(=O)O)c1cccc(Br)c1)C(=O)C2 (centres undefined)	3.0	i	1.4	-3.4	4.8	0.661	-2.4%
CC(C)(C)c1ccc(S(=O)(=O)/N=C2\C=C(NS(=O)(=O)c3ccccc3)C(=O)c3ccccc32)cc1	0.6	i	5.6	u	x	x	x
Cc1cccnc1C1=NOC(Cc2ccccc2)C(=O)N1CCOc1ccc(F)cc1 (centres undefined)	-0.7	i	1.0	x	x	x	x
CCn1c(C(=O)Nc2ccsc2C(=O)OC)cc2sc(Cl)cc21	4.7	i	-2.6	20.4*	-165.0	0.738	-61.9%
O=C(NCC1CCCO1)C(c1ccc(N2CCOCC2)cc1)N(C(=O)Cn1nnc2ccccc21)c1ccccc1F (centres undefined)	2.9	i	0.5	u	6.5	0.724	-0.3%
CN(Cc1ccccc1)C(=O)c1ccc(NC(=O)Cc2ccc(NC(=O)C3CCN(C(=O)C4CCCCC4)CC3)cc2)cc1	3.8	x	6.6	x	0.2	0.699	3.5%
COC(=O)c1cn(C(=O)/C=C/c2ccc(OC)c(OC)c2)c2ccccc12	-2.5	i	-0.3	-2.5	-103.3	0.671	-3.4%
CCC[C@H]1CN(Cc2ccccc2)C(=O)[C@@H]1CC(=O)NC	-0.4	i	0.0	x	x	x	0.9%
COc1ccc(S(=O)(=O)N2CCCCC2)cc1NC(=O)c1cccc(S(=O)(=O)N2CC(C)OC(C)C2)c1 (centres undefined)	4.4	i	3.5	x	-1.1	0.725	x
O=C(NN=C1CCCC1)c1cc(-c2ccccc2)n[nH]1	-2.5	x	x	1.4	2.7	0.649	13.2%
Cc1oc(-c2ccc(Cl)cc2)cc1-c1nn2c(-c3ccoc3C)nnc2s1	-27.2	x	x	-1.7	3.9	0.674	1.04µM*!
Cc1cc(F)ccc1S(=O)(=O)Nc1ccccc1C(=O)Nc1ccccc1-c1nc2ccccc2[nH]1	-0.2	x	x	-0.3	-25.5	0.718	16.7%
COc1ccccc1C(=O)OCC(=O)NC(=O)NC1CCCCC1	3.6	i	-0.3	x	-0.7	0.651	2.2%
COc1cccc(CNS(=O)(=O)c2c(C)[nH]c(C)c2C(=O)N2CCCCC2)c1	-2.7	i	-1.8	-1.7	0.9	0.689	x
COc1ccc(C(=O)COC(=O)CCNS(=O)(=O)c2ccccc2)c(OC)c1	-3.3	i	-0.1	-0.6	2.9	0.636	6.2%
O=S(=O)(c1ccccc1)c1ccccc1/C=N\O	-0.8	x	x	1.0	x	x	18.9%
